PABP polyA inh = PABP poly(A) RNA binding inhibitors, primary screen, biochemical, fluorescence polarization, uHTS. Polyadenylate-binding protein 1 (Homo sapiens), P11940. actives 1% (n = 290,000). inhibition, % at 35 µM. AID 2014, 2009;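 active = 50% or more with normal probe brightness, or confirmed in later tests; inconclusive = above 50% with abnormal brightness, or retests that disagree; inactive = below 50% or failed in later tests; about a fifth of its hits are not listed in these tables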;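 also: calls also rest on retests at 20 µM and on dose response follow-up; controls were probe without protein and protein plus probe with vehicle; some compounds called inactive have numbers as strong as hits; many hits fall short of the cut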
MT1-MMP act inh = blockers of MT1-MMP proenzyme processing, primary screen, HT1080 RFP-PRO-GFP cells, GFP/RFP fluorescence; GFP/RFP ratio fluorescence, overnight; percent of plate control window, DMSO zero; actives 0.061% (n = 360,000); Matrix metalloproteinase-14 (Homo sapiens), P50281; GFP/RFP ratio change, % at 20 µM; AID 651647, 2012;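 active = GFP/RFP ratio change of at least 30% with cell ATP level not reduced by more than half and red fluorescence within 50% of control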; also: strong numbers were not always called active
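system = RFP-PRO-GFP reporter HT1080 cells | dosing = 20 µM single dose, 1% DMSO | timing = overnight cell settling, then overnight compound exposure, 37 °C, 5% CO2 | read-out basis = GFP/RFP fluorescence ratio | controls = DMSO and RFP-L50D-GFP cell wells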
Rce1 inh = yeast Rce1p protease inhibitors, primary screen, biochemical, fluorescence, cell-free homogeneous; yeast membranes, quenched prenylated peptide cleavage fluorescence; calls only; actives 0.27% (n = 290,000); AID 2563, 2010;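 active = fall in fluorescence gain of 50% or more versus controls, with final raw signal at or below 3038400; inconclusive = same 50% fall but final raw signal above 3038400; inactive = fall in fluorescence gain under 50%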;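 also: plate controls were neutral control wells for no effect and wells lacking membranes for full effect; tested at 10 µM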
Target sequence (Q03530 whole entry, looked up): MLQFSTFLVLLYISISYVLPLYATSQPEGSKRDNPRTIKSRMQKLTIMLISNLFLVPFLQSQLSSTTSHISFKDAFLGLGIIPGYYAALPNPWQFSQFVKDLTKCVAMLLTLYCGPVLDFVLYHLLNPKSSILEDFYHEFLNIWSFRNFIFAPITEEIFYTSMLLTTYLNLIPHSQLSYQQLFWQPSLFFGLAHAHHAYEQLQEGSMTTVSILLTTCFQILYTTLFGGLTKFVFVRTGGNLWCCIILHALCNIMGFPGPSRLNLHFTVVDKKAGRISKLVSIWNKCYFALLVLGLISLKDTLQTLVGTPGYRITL
eIF4H FP inh = human eIF4H binding inhibitors, primary screen, translation initiation inhibitor project, biochemical, uHTS, fluorescence polarization | eIF4H fluorescence polarization binding assay | inhibition, % at 35 µM | actives 0.94% (n = 290,000) | Eukaryotic translation initiation factor 4H (Homo sapiens), Q15056;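 active = 50% or more with normal probe brightness, or confirmed in later tests; inconclusive = above 50% with abnormal brightness, or retests that disagree; inactive = below 50% or failed in later tests; about a fifth of its hits are not listed in these tables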;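 also: calls also rest on retests at 20 µM and on dose response follow-up; 0% = protein and probe with vehicle and 100% = probe without protein; strong numbers were not always called active; many hits fall short of the cut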
Env fusion inh = inhibitors of HIV-1 Env-driven cell-cell fusion, primary screen, HeLa-JRFL effector, CEM21 target cells, luciferase. inhibition, % at 12.3 µM. actives 1.1% (n = 360,000);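 active = mean replicate inhibition score of at least 50 and every replicate individually at or above 50; inconclusive = only one of the two criteria met; inactive = mean below 50 and not all replicates reaching 50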;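 also: 0% = plate neutral controls and 100% = maraviroc near 300 nM; one replicate is shown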
CSC inhib = cancer stem cell viability inhibitors, primary screen, luminescence; cancer stem cell-like cells viability; inhibition, % at 7.5 µM; actives 1.1% (n = 300,000); AID 2717, 2010;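 active = mean at 75% or more and at least half the replicates too; inconclusive = mean and replicates disagree; tested in HMLE shEcad cells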;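 also: 0% = median of negative and 100% = median of positive control wells; the first replicate is given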
UUG fidelity = modulators of yeast start codon fidelity, primary screen, whole organism, S. cerevisiae, single point, plate reader; S. cerevisiae UUG-firefly luciferase reporter, luminescence/redox ratio; activity score, % at 18.7 µM; actives 0.13% (n = 350,000); AID 602363, 2012;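 active = replicate mean at a twofold rise or more, about +100% in these data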;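 also: firefly luciferase made from a UUG start codon reports start codon fidelity; reporter light over untreated wells divided by growth signal over untreated wells; some hits fall short of that in this replicate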
eIF4H FP inh retest = recorded beside eIF4H FP inh, whose call it bears; inhibition, %; compound at 20 µM; confirmation average;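 mean of two retest wells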
PABP polyA inh retest = further read-out of PABP polyA inh, marked with its call; inhibition, %; compound at 20 µM; confirmation repeats;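 mean of two retest wells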
MT1-MMP act inh RFP = also measured in MT1-MMP act inh; calls as there; RFP signal change, %; measured here: RFP expression control read;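 0 = vehicle wells; hits needed this value within 50% of zero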
Starred values were filed as active, the others as inactive; i = inactive; ? = inconclusive; nt = no result given; & = joins results of further samples; [ ] = dose if it differs, or a comment.

SMILES	PABP polyA inh	MT1-MMP act inh	MT1-MMP act inh RFP	Rce1 inh	eIF4H FP inh	Env fusion inh	CSC inhib	UUG fidelity	others
COC(=O)c1[nH]c2ccc(F)cc2c1NC(=O)C1=COCCO1	-7.7	-1.3	-3.4	i	12.6	nt	-10.0	-7.9&1.1
O=C(COC(=O)c1ccc2[nH]c3c(c2c1)CCCC3)Nc1ccccc1Cl	-1.4	-0.2	-3.1	i	6.1	-16.7	11.4	nt
COc1ccc(-c2cc(OC)c3c(C)oc(C)c3c(=O)c2)cc1OC	25.0	-96.3	6.9	i	4.1	nt	12.0	-18.6
CCCNC(=O)C1(C)CCCN(Cc2cccc(C#N)c2)C1 (stereo not given)	nt	-4.3	1.5	nt	nt	?	nt	-22.2
N#C/C(=C(/O)COC(=O)CCC1CCCCC1)c1nc2ccccc2[nH]1	44.6	-8.8	-2.0	i	60.8	13.0	nt	14.7	eIF4H FP inh retest=-5.0;PABP polyA inh retest=3.7
COCC(=O)Oc1c(S(=O)(=O)c2ccc(C)cc2)c(C)nn1C(C)(C)C	-5.4	nt	nt	i	-6.9	-19.5	-8.3	-20.2
COCCCNc1c2c(nc3nnnn13)CCCC2	10.2	0.8	3.3	i	-12.1	7.9	5.0	nt
CCCOc1ccc(C2C(C(=O)c3ccc(C)o3)=C(O)C(=O)N2CCCn2ccnc2)cc1 (stereo not given)	nt	-6.4	-0.8	i	nt	-3.5	nt	-23.7
COc1ccc(OC)c(/C=N/Nc2nncn2/N=C/c2cc(OC)ccc2OC)c1	1.9	-4.6	-9.5	i	-5.2	1.5	48.7	-22.0
COc1ccc(S(=O)(=O)N(CC(=O)NC2CC2)c2ccc(C)cc2)cc1OC	-8.9	1.0	2.8	i	5.8	-24.6	-10.0	1.0
Cc1ccc(-n2c(C)nc3ncnc(-c4ccccc4)c32)cc1	2.0	7.5	-3.8	i	0.4	-3.4	10.3	nt
O=C(CNC(=O)c1cccc(Br)c1)NCCc1nc2ccccc2[nH]1	-2.1	0.4	-2.6	i	-9.8	41.5	-12.4	-11.4
O=C(Nc1cccc(S(=O)(=O)N2CCOCC2)c1)c1cc(=O)[nH]c2ccccc12	nt	3.7	0.7	nt	nt	15.5	-8.1	-40.6
O=C(NC(c1ccccc1)C(Cl)Cl)c1ccccc1 (stereo not given)	-7.2	1.5	4.2	i	-1.2	3.9	nt	nt
CCCCc1cc(=O)oc2cc(OCC(=O)NCCN3CCOCC3)c(Cl)cc12	6.7	0.8	1.4	i	-9.3	0.5	1.0	-0.8
CC(=O)N/C(=C\c1ccccc1)C(=O)NCc1ccc2c(c1)OCO2	5.5	-2.4	-0.9	i	-6.0	-6.9	-4.3	-4.4
C=CCSc1nc(C)c(CC=C)c(=O)[nH]1	7.8	2.1	4.3	i	-5.3	nt	-0.3	nt
CCCNC(=O)c1ccccc1NC(=O)c1ccc(CSc2ccccc2)cc1	-6.7	-2.6	-9.1	i	-0.4	nt	nt	-4.6
COc1cc(C(=O)OCc2cccc(S(=O)(=O)N3CCOCC3)c2)ccc1OCC(C)C	nt	-0.6	-2.8	nt	nt	4.7	-12.4	2.8
O=C(O)COc1ccccc1/C=C1\SC(=O)N(Cc2ccc(F)cc2)C1=O	4.0	9.9	3.7	i	14.3	-2.4	4.1	1.6
O=C1CC(=O)Nc2cc(S(=O)(=O)Nc3ccc(Cl)c(C(F)(F)F)c3)ccc2N1	8.0	2.7	9.2	i	7.1	0.6	-14.6	-4.7
C=CCc1ccc(OCCCOc2ccc(C)cc2OC)c(OC)c1	2.5	1.3	-7.1	i	4.7	nt	0.3	-1.9
CCOC(=O)c1sc(NC(=O)c2c(OC)cccc2OC)nc1C	-7.6	-2.2	2.6	i	0.2	nt	-2.2	-8.6
Cc1ccccc1CN1CCN(CC(=O)NCCCN2CCN(c3ccc(F)cc3)CC2)C1=O	-0.8	6.1	-8.2	i	-11.0	nt	9.4	-13.6
CC(C)C(O)(C#CCN1CCCCC1)c1ccccc1 (stereo not given)	8.3	-1.1	-0.3	i	-10.9	-4.6	6.1	nt
CCCCn1c(N2CCC(Cc3ccccc3)CC2)nc2c1c(=O)[nH]c(=O)n2C	-5.6	1.3	-14.2	i	6.8	nt	-5.9	-2.8
O=C(CNC(=O)c1ccc(F)cc1)N/N=C/c1cn[nH]c1-c1ccccc1	-5.7	-1.0	3.4	i	-2.6	21.3	-21.0	nt
COc1ccc(OC)c(NC(=O)c2ccc3nc(-c4ccccc4)c(-c4ccccc4)nc3c2)c1	-0.8	nt	nt	i	-6.8	nt	1.0	nt
COc1ccccc1N1CCN(C(=O)COc2ccc(Cl)cc2)CC1	-3.5	4.3	0.9	i	0.1	-24.8	2.1	1.3
COc1ccc(/C=C(\C#N)c2n[nH]c(Cn3cncn3)n2)cc1	7.0	0.9	1.4	i	-0.4	-21.3	-2.2	nt
O=C(CSc1ccccc1Cl)N1CCC(c2nc3ccccc3s2)CC1	-21.6	1.6	-10.0	i	-9.1	nt	-9.9	12.0
CCc1noc(C)c1C(=O)N(C)CC(=O)Nc1ccc(OC)cc1	nt	-0.2	9.9	i	nt	0.8	-5.4	-10.4
COc1ccc(-c2csc(C(O)c3ccc(F)c(OC)c3)n2)cc1 (stereo not given)	nt	-2.8	-18.1	nt	nt	22.7	nt	-4.7
Cc1[nH]n(-c2ccccc2)c(=O)c1C=Nc1cccc2cccnc12	2.7	-9.5	1.5	i	20.4	56.8*	11.8	nt
Cc1ccc2nc(N3C(=O)C(O)=C(C(=O)c4ccco4)C3c3ccc(C)o3)sc2c1 (stereo not given)	26.7	-2.2	1.7	i	18.8	-8.0	9.5	-4.1
CCC(CC)C(=O)N(C)c1c(C)nc2c(OCCC3CCCCC3)cccn12	nt	5.7	-9.4	nt	nt	?	nt	-10.2
O=C(C(=C1NCCN1)n1cncn1)c1ccccc1	10.3	-1.1	2.2	i	3.7	-4.2	-7.4	-11.5
O=c1cc2c(nn1Cc1ccc(Cl)cc1Cl)-c1ccccc1CC2	-2.5	-1.1	-10.5	i	-3.6	43.7	4.1	-2.7
c1ccc(NNC2=NCCS2)cc1	12.6	2.3	8.1	i	-7.3	8.9	1.2	8.2
O=C(NCc1ccc(F)cc1)C1(S(=O)(=O)c2ccc(Cl)cc2)CC1	0.1	-1.1	0.4	i	4.2	-2.8	nt	-9.8
CC1CCN(C(=O)C2CCN(C(=O)c3ccc(C(C)(C)C)cc3)CC2)CC1	3.5	4.8	-4.5	i	0.4	2.0	nt	1.4
COc1ccc(CCN2C(=O)CC(N3CCN(S(=O)(=O)c4ccccc4)CC3)C2=O)cc1OC (stereo not given)	-13.5	0.6	1.5	i	2.0	18.8	2.3	nt
CC(=O)Nc1cccc(Oc2cc(C#N)c(C#N)cc2N2CCOCC2)c1	8.5	2.4	4.6	i	5.7	nt	nt	-3.0
Cn1c(SCc2ccccc2F)nnc1-c1cnccn1	-8.2	14.6	-3.2	i	-8.0	-32.1	-1.5	-5.2
CCOC(=O)N1CCN(Cc2nc3cc(NC(=O)CC)ccc3n2C)CC1	9.5	-1.5	1.3	i	0.6	11.5	-8.3	-27.8

Ordered by formula weight (smallest number first): part of the list above.
SMILES	PABP polyA inh	MT1-MMP act inh	MT1-MMP act inh RFP	Rce1 inh	eIF4H FP inh	Env fusion inh	CSC inhib	UUG fidelity	others
O=C(C(=C1NCCN1)n1cncn1)c1ccccc1	10.3	-1.1	2.2	i	3.7	-4.2	-7.4	-11.5
CC1CCN(C(=O)C2CCN(C(=O)c3ccc(C(C)(C)C)cc3)CC2)CC1	3.5	4.8	-4.5	i	0.4	2.0	nt	1.4
Cc1ccc2nc(N3C(=O)C(O)=C(C(=O)c4ccco4)C3c3ccc(C)o3)sc2c1 (stereo not given)	26.7	-2.2	1.7	i	18.8	-8.0	9.5	-4.1

More results follow.
SMILES	PABP polyA inh	MT1-MMP act inh	MT1-MMP act inh RFP	Rce1 inh	eIF4H FP inh	Env fusion inh	CSC inhib	UUG fidelity	others
CCOc1cccc(C(=O)NC(=S)NCc2cccnc2)c1	-4.9	-0.7	-0.1	i	-1.6	-4.8	-1.2	nt
COc1ccccc1NC(=O)N(C)C[C@H]1Oc2ncc(C#CCN(C)C)cc2C(=O)N([C@H](C)CO)C[C@H]1C	nt	-0.5	1.3	nt	nt	-23.2&-33.1[16.7 µM]	nt	-7.3&3.6&0.1
CCOC(=O)C1=C(COC(=O)Cc2ccc(Cl)cc2)NC(=O)NC1C (stereo not given)	nt	1.0	2.7	nt	nt	17.2	nt	-8.1
Cc1ccc(Nc2nnc(SCC(=O)Nc3ncc(C(F)(F)F)cc3Cl)s2)cc1	-1.5	1.3	2.9	i	3.7	3.8	-2.5	-2.4
CN(CC(=O)NCc1ccc(F)cc1)S(=O)(=O)c1ccc2c(c1)n(C)c(=O)c(=O)n2C	6.5	0.0	4.1	i	-16.8	9.4	-11.4	-9.3
CC(C)[C@H](NC(=O)[C@@H]1CSC2c3ccccc3C(=O)N21)C(=O)NC1CCCCC1 (stereo not given in full)	-8.9	0.1	1.7	i	-3.9	-1.5	-8.3	-8.2
O=C(CCC(=O)c1cccs1)NCc1cccnc1	9.2	3.5	2.0	i	6.2	-19.2	-6.6	-9.7
CCc1c(O)nc(SCC(=O)Nc2c(C)cccc2C)n(-c2ccc(F)cc2)c1=O	nt	-0.2	-1.7	nt	nt	-5.7	nt	-17.4
O=C(COC(=O)c1cccc(Oc2ccccc2)c1)NCc1ccco1	0.5	-5.5	1.0	i	-13.9	-48.5	16.9	-18.5
C[C@]1(OC(=O)/C=C/c2ccccc2)C[C@@H](O)[C@]2(O)C=CO[C@@H](O[C@@H]3O[C@H](CO)[C@@H](O)[C@H](O)[C@H]3O)[C@@H]21	nt	4.0	1.6	nt	nt	-5.2	1.4	-2.0
Cc1cccc(C)c1NC(=O)Cn1nnnc1N	9.3	3.0	0.9	i	-9.6	-7.2	-14.9	-3.6
N=c1c(C(=O)NCc2ccc(F)cc2)cc2c(=O)n3ccccc3nc2n1Cc1ccco1	3.5	-13.2	-12.6	i	48.2	nt	38.1	6.1
Cc1cccc2c(N=Nc3ccc(S(=O)(=O)Nc4cccc(Cl)c4)cc3[N+](=O)[O-])c(O)[nH]c12	-8.8	26.7	-9.4	nt	-0.6	-12.9	36.8	nt
Cc1cccc(OCC(=O)Nc2cccc(C(=O)NCC(C)C)c2)c1	-7.0	4.4	-1.8	i	0.8	1.6	-8.1	-22.8
O=C(NCc1cccs1)c1ccc([N+](=O)[O-])cc1Cl	-7.3	2.2	3.0	i	-11.8	-15.4	-1.3	nt
CCN(CCNC(=O)C1CCCN(Cc2nc(-c3ccc(OC)cc3)oc2C)C1)c1ccccc1 (stereo not given)	-9.0	-5.7	-13.0	i	-9.4	43.3	2.5	-6.1
Cc1sc2nc(CN3CCN(S(=O)(=O)c4cccc5nonc45)CC3)[nH]c(=O)c2c1C	-3.1	0.5	-2.6	i	-2.3	nt	15.3	-6.4
CCC1S/C(=N/N=C/c2ccco2)N(c2ccc(F)cc2)C1=O (stereo not given)	-3.7	1.4	4.2	i	15.8	10.3	11.6	nt

Screening data deposited in PubChem BioAssay by several laboratories.
